NPYLR7 agonist: mosquito NPYLR7 agonism. HEK293T NPYLR7/Galpha15, GCaMP6s calcium fluorescence. activation, % at 10 µM. 0.15% of 270,000 active. AID 1259423; in the data active = activation above about 40%;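 note: 0% = vehicle and 100% = reference agonist at the receptor; some compounds past the cut are filed as inactive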
NPYLR7 agonist max-min: second read-out of NPYLR7 agonist, no call of its own (marks repeat the call); activation, %; measured here: Max-Min RFU normalised activation; some inactives read as strong as hits;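 span of the calcium signal over five minutes; 0% = vehicle and 100% = native peptide agonist; compound fluorescence can raise it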
* hit, by the source's call; & = joins results of further samples.

Structure	NPYLR7 agonist	NPYLR7 agonist max-min
O=C(O)CN(CCP(=O)(c1ccccc1)c1ccccc1)CC(=O)O	-2	-3
Cc1cc(C)n(-c2ccc(N3CCC(N[C@H]4CC=CC[C@H]4C(N)=O)CC3)cc2)n1	-1	-6
c1cnn(CCCNc2ccc(-c3nc(C4CC4)no3)cn2)c1	13	6
CCc1nc2ccc(C(=O)NC3CCN(Cc4ccccc4)CC3)cn2c1N(CC)Cc1ccc(OC)c(OC)c1	20	12
Cc1nn(-c2ccccc2)c2[nH]cc(C(=O)Nc3ccccc3)c(=O)c12	-3	21
CCC(=O)Nc1ccc(OCC(=O)NCc2nc(C)c3c(n2)CCCC3)cc1	7	4
COc1ccc(-n2nnc3c(N4CCN(S(=O)(=O)c5ccc(C)cc5C)CC4)ncnc32)cc1	-8	-23
COC(=O)Cn1c(=O)c2c(nc3n(-c4ccc(OC)c(Cl)c4)c(C)cn23)n(C)c1=O	5	5
CC(C)CN(Cc1cccn1Cc1ccccc1Cl)C(=O)c1cccc(Cl)c1	-1	11
CCOC(=O)c1nc2ccccc2nc1N1CCCN(S(=O)(=O)c2c(F)c(F)c(F)c(F)c2F)CC1	5	3
COC(=O)CSC1=C(C#N)C(=O)NC2(CCCCC2)S1	17	10
O=C(NCC(=O)N1CCCC1)c1c[nH]cc1-c1cnn(-c2ccccc2)c1	5	3

Continued, starting with the last 2 of the part before.
Structure	NPYLR7 agonist	NPYLR7 agonist max-min
COC(=O)CSC1=C(C#N)C(=O)NC2(CCCCC2)S1	17	10
O=C(NCC(=O)N1CCCC1)c1c[nH]cc1-c1cnn(-c2ccccc2)c1	5	3
COc1ccccc1N(C)S(=O)(=O)c1ccc(Cl)cc1	1	0
CC(C)c1csc(C(=O)N2CCC(OCc3cccnc3)CC2)n1	-1	-1
Cc1ccc(C=C2COc3ccccc3C2=O)s1	17	7
O=C1CN(c2ccc(S(=O)(=O)C(F)(F)F)cc2)CCN1	4	3
CCOc1cccc(-c2nc(C(N)=O)c3[nH]c(=O)n(-c4ccc(C(C)(C)C)cc4)c3n2)c1O	-5	-5
NC1=NC(=O)/C(=C\c2cc3c(cc2Br)OCO3)S1	32	5
COc1cc(=O)n(-c2ccc(F)cc2)nc1C(=O)N(Cc1ccccc1)c1ccccc1	5	-1
Cc1cccc(OCC(=O)NN2C(=O)NC3(CCCCC3)C2=O)c1	3	0
Cc1ccc(C(=O)N2CCC(N3CCC(C(=O)NC(C)C)CC3)CC2)s1	0	-3
COCCn1c(C(=O)NCC(=O)OC(C)C)cc2c(=O)n(C)c(=O)n(C)c21	-1	-1
CN(C(=O)NCc1ccncc1)C1CCCN(c2ccccc2)C1=O (stereo unspecified)	1	-2
O=C(NC1CC(=O)N(c2ccccc2)C1)c1cc2c([nH]c1=O)CCC2 (stereo unspecified)	-2	-2

(listing goes on)
Structure	NPYLR7 agonist	NPYLR7 agonist max-min
CCCCNC(=O)CSc1ncnc2c1cnn2-c1ccc(F)cc1	-8	-7
O=C1C(=Cc2csnn2)CN(CC(F)F)CC1=Cc1csnn1	8	5
CC(=O)N[C@@H](CS)C(=O)O	0	7
CCC(=O)C1=C(c2cccc(OC)c2)N(C(=O)CC)n2c(C)nnc2S1	1	-3
COc1cccc(-c2noc(CN3C(=O)COc4ccc(C)cc43)n2)c1OC	-4	-6
CC(=O)Nc1ccc(C=NCCc2cccs2)cc1	2	3
COc1cccc(C2CCCCN2Cc2nc(Cc3cccc(C(F)(F)F)c3)no2)c1 (stereo unspecified)	8	6
CC(C)Sc1nnc(-c2ccc(=O)n(C)c2)n1C	3	2
COc1ccccc1C(=O)Nc1ccnn1C1CCN(C(=O)c2ccccn2)CC1	14&11	7&6
CCOC(=O)CNC(=O)CSC1=NS(=O)(=O)c2ccccc2N1	14	9
O=C(CN1C(=O)C(Oc2ccccc2)C1c1ccccn1)NCC(O)c1ccc(O)cc1 (stereo unspecified)	9	8
CCOC(=O)C1(Cc2ccccc2Cl)CCN(C(=O)CCc2ccccc2)CC1	10	2

Carrying on:
Structure	NPYLR7 agonist	NPYLR7 agonist max-min
O=S(=O)(NN=Cc1ccc(C(F)(F)F)cc1)c1ccc(Br)cc1	-3	-8
N#CCCN(Cc1ccco1)S(=O)(=O)CC1CCCCC1	6	4
Cn1c2nc3ccccc3nc2c2c(=O)n(C3CCCC3)cnc21	-3	-3
CC(C)c1cc(CNC(=O)N2CCCC3CCCC32)on1 (stereo unspecified)	5	5
O=C(NNc1ncccn1)c1cc(Cl)c[nH]1	-3	-5
COc1ccc(C2CC(c3ccc4ccccc4c3O)=NN2)cc1OC (stereo unspecified)	7	4
CC(=O)OC1(C#CI)C2CC3CC(C2)CC1C3 (stereo unspecified)	8	0
Cc1occc1-c1n[nH]c(=S)o1	13	13
CCSc1nnc(SCC(=O)NC(=O)NC(C)(C)C)s1	0	3
Cc1cc(C)n(CCNC(=O)c2cc(-c3ccccc3)n[nH]2)c(=O)n1	25	15
COc1ccc(C2=NN(C(=O)COc3cc(C)ccc3C(C)C)C(O)(C(F)(F)F)C2)cc1 (stereo unspecified)	0	1
CCc1nc2n(n1)C(=O)C(C(c1ccc(C(C)C)cc1)N1CCCC1)S2 (stereo unspecified)	-2	2

(continued)
Structure	NPYLR7 agonist	NPYLR7 agonist max-min
Cc1ccc(C2=NN(c3ccc(/C=N\NC(=O)c4ccc(F)cc4)cc3)CC2)cc1	-5	-15
CCn1nnnc1SCc1csc(Cc2ccc(OC)cc2)n1	2	10
COc1cc(NC2=Nc3cccc4cccc2c34)cc(OC)c1OC	-3	-4
Cc1cccc(CSc2nnc(CNC(=O)/C=C/c3ccccc3)n2-c2ccc(Cl)cc2Cl)c1	3	9
CCc1noc(C)c1C(=O)N1CCN(C2CCCC2O)CC1 (stereo unspecified)	5	3
Cc1ccc(C(=O)N2CC(C)(C)SC23C(=O)N(Cc2ccccc2)c2ccc(C)cc23)cc1 (stereo unspecified)	-3	1
Cc1ccc(S(=O)(=O)Nc2ccccn2)c(C)c1	14	14
CCN(CC)C(=O)CN1CCN(C(=O)CCc2nc3cc(S(=O)(=O)N(C)C)ccc3n2C)CC1	-1	12
Cc1ncsc1CN1CCCCC1CCN(C)C (stereo unspecified)	0	-7
CN(C)C(=O)c1nc2ccc(Cl)cn2c1CNCc1cnn(Cc2ccccc2)c1	11	4
Cc1[nH]nc(NC(=O)c2cc(C)n(C)n2)c1-c1ccc2c(c1)OCO2	2	2
Cc1ccsc1CN(Cc1ccc(Sc2nncn2C)o1)C1CCCC1	2	1

Next part.
Structure	NPYLR7 agonist	NPYLR7 agonist max-min
CCN(CCC(=O)N1CCC(C)CC1)C(=O)c1cnc(C)cn1	25	17
CCOC(=O)c1nn(-c2ccc(OC)cc2)c(=O)c2c(NC(=O)CCC3CCCC3)scc12	-9	-8
CC(C)CCC1(C)NC(=S)N(c2ccc(Cl)cc2)N1 (stereo unspecified)	0	-1
CCCCc1c(C)[nH]n(-c2nc3ccccc3[nH]2)c1=O	-7	-13
CCN1CCC(NC(=O)Nc2ccc3c(c2)N(CC)CC3)CC1	14	9
C=CCOc1nc(-c2ccncc2)nc2ccccc12	-2	-4
CCOC(=O)C(CC(C)C)NC(C)=O (stereo unspecified)	4	4
COc1ccc2oc(/C=C/N(C)C)c(C(=O)c3ccc(Br)cc3)c2c1	8	7
CCCSc1nc2c(c(=O)[nH]1)C(c1sccc1C)C(C(=O)OC(C)C)C(C)=N2 (stereo unspecified)	2	5
COc1ccc(Cl)cc1CC1(C)C(=O)Nc2ccccc21 (stereo unspecified)	1	0
O=C(Nc1ccc2nc(COCCO)[nH]c2c1)Nc1ccccc1-c1ccccc1	11	9
COc1cccc2cc(-c3nc4ccccc4[nH]3)c(=Nc3cccc(C#N)c3)oc12	0	-6

Overlap with the part before: 5 compounds, followed by the next part.
Structure	NPYLR7 agonist	NPYLR7 agonist max-min
COc1ccc2oc(/C=C/N(C)C)c(C(=O)c3ccc(Br)cc3)c2c1	8	7
CCCSc1nc2c(c(=O)[nH]1)C(c1sccc1C)C(C(=O)OC(C)C)C(C)=N2 (stereo unspecified)	2	5
COc1ccc(Cl)cc1CC1(C)C(=O)Nc2ccccc21 (stereo unspecified)	1	0
O=C(Nc1ccc2nc(COCCO)[nH]c2c1)Nc1ccccc1-c1ccccc1	11	9
COc1cccc2cc(-c3nc4ccccc4[nH]3)c(=Nc3cccc(C#N)c3)oc12	0	-6
CN(CCCNC(=O)C(=Cc1ccccc1)c1ccccc1)c1ccccc1	-10	-13
CN1CCN(CCCN(C)CC(=O)Nc2cc(F)cc(F)c2)CC1	7	5
Cc1cc(Cn2cnc(-c3ccccc3)c2COCc2ccccc2)ccn1	-8	-9
CCOC(=O)c1c(-c2cccs2)csc1NC(=O)CCl	-9	-13
O=S(=O)(c1ccc(Sc2nnc(NC3CC3)s2)nc1)N1CCCC1	9	3
CCOc1ncccc1C(=O)NCc1cccnc1-n1ccnc1	-2	-6
O=C(Nn1cnc2c(cnn2-c2cccc(Cl)c2)c1=O)c1ccccc1C(F)(F)F	6	4
COc1ccc(OCCSc2cccc[n+]2[O-])cc1	0	6
CC(C)N(CCNC(=O)CCCc1ccc(NC2OC(C3COC(C)(C)O3)[C@@H]3OC(C)(C)O[C@H]23)cc1)C(C)C (stereo partly specified)	-5	-8
Nc1nc(CN2CCOCC2)nc2ccccc12	10	15
O=C1CSC(c2ccc(OC(F)F)cc2)N1c1ccc(O)cc1 (stereo unspecified)	-4	-13
CCOC(=O)N1CCN(C(=O)CSc2ncnc3c2nnn3-c2ccc(F)cc2)CC1	1	37

Later entries
Structure	NPYLR7 agonist	NPYLR7 agonist max-min
CCOCC1CCCN1S(=O)(=O)NCc1ccccc1 (stereo unspecified)	2	-1
Cc1cc(F)ccc1Oc1cc(Cl)ncn1	14	21
O=C(Nc1ccc(SC(F)F)cc1)c1n[nH]c(=O)c2ccccc12	5	1
Brc1nc(Br)n(CCN2CCCCC2)n1	1	7
C=CCCC(=O)N1CCc2ccccc2C1c1ccc(C)cc1 (stereo unspecified)	-5	1
Cc1cc(F)ccc1NC(=O)C(C)NC(=O)Cc1nonc1C (stereo unspecified)	4	2
CCS(=O)(=O)CC(C)N(C)c1ncnc2cc(Cl)ccc12 (stereo unspecified)	12	5
COc1cc(F)c(NC(=O)C2(C)CCCc3ccccc32)cc1OC (stereo unspecified)	5	2
Cc1cc(C(=O)N2CC(=O)N(C3CCCCC3)CC(OCc3ccccc3)C2)nc(C)n1 (stereo unspecified)	8	-2
COc1ccc(N2C(=O)CSC2c2cc(Br)ccc2OC)cc1 (stereo unspecified)	-6	-9
O=c1oc2c(cc(NS(=O)(=O)c3ccc(Br)cc3)c3ccccc32)s1	0	-9
CC(C)Oc1nc(-c2cccc(F)c2)n(-c2ccc(NC(=O)c3ccc(Br)cc3)cc2)n1	9	8

Next part:
Structure	NPYLR7 agonist	NPYLR7 agonist max-min
CN(CC1Cc2ccccc2O1)S(=O)(=O)NCc1ccccc1 (stereo unspecified)	-5	-6
COC(=O)CCCC(=O)N1CCN(c2ncccc2C(=O)NCC2CCCO2)CC1 (stereo unspecified)	3	2
CCC1(C(=O)c2ccc(Cl)cc2)C2C(C)(C)OC(=O)C21C(=O)OC (stereo unspecified)	-1	44
CCC(COC)NC(=O)c1c(C)noc1-c1ccc(OC)cc1 (stereo unspecified)	5	0
CCOC(=O)C1CCCCN1CC(=O)N1N=C(c2cc(C)ccc2C)CC1c1ccccc1C (stereo unspecified)	3	14
Cc1ccc(C)c(NC2=NC3(CCCC3)N=C(N)N2)c1	5	3
Cc1noc(C)c1S(=O)(=O)Nc1ccc2c(c1)OCO2	5	4
CCOc1ccc(S(=O)(=O)Nc2ccc(Nc3ccc(-n4nc(C)c(C)c4C)nn3)cc2)cc1	-3	-11
COC(=O)CCCCC(=O)N1CCN(c2nccc(-c3ccc(C(C)(C)C)cc3)n2)CC1	6	3
CCC(C)C(=O)NC(C)c1cnn(-c2ccc(F)cc2)c1C (stereo unspecified)	0	1
Cc1cccc(N=c2oc3ccccc3cc2-c2nc3ccccc3[nH]2)c1	10	3
C=c1ccccc1=c1[nH]/c(=C\c2ccc(OCc3ccccc3)cc2)c(=O)o1	10	11

(more compounds)
Structure	NPYLR7 agonist	NPYLR7 agonist max-min
O=C(NCC(=O)N1CCC(c2nc3cc(Cl)ccc3o2)CC1)c1ccccc1F	1	14
CCc1ccc(-n2c(C)c(C)n3c4c(=O)n(CCN5CCOCC5)c(=O)n(C)c4nc23)cc1	16	12
CNC(=O)c1cccc(-c2ccnc3n[nH]c(-c4cccc(C(F)(F)F)c4)c23)c1	10	8
Cc1cc(C)cc(N2N=NC3C(=O)N(c4ccc5c(c4)CCC5)C(=O)C32)c1 (stereo unspecified)	2	-1
CCN(Cc1noc(CC(C)C)n1)C(=O)c1cccc(=O)[nH]1	6	4
O=C(CCn1nnc2ccccc21)N1CCC2(CCOCC2)CC1	4	0
Nc1c(-c2ccccc2)nc2ccccn12	4	4
COc1ccccc1C1CCCN1C(=O)CN1C(=O)C2C[C@H](O)CN2C(=O)c2ccccc21 (stereo partly specified)	3	19
CC(=O)NCCc1nc2ccccc2n1CCCCOc1ccccc1	-2	-7
Nc1nc(-c2cc3cc(Br)cc(Br)c3oc2=O)cs1	-2	-3
Cc1ccc2c(c1)CN(CC(=O)NCc1nc3c(s1)CCCC3)CC(c1ccsc1)O2 (stereo unspecified)	3	2
CC(C)c1ccc(NC(=O)CN(C2CCCCC2)S(C)(=O)=O)cc1	5	11
O=C(Cn1c(CO)c[nH]c1=S)NC1CC1	-3	-5

2 of these compounds, reformatted:
SMILES: O=C(Nc1ccc(SC(F)F)cc1)c1n[nH]c(=O)c2ccccc12
  NPYLR7 agonist = 5; NPYLR7 agonist max-min = 1

SMILES: C=CCOc1nc(-c2ccncc2)nc2ccccc12
  NPYLR7 agonist = -2; NPYLR7 agonist max-min = -4

Only part of the results is shown. The share of hits here may be higher or lower than overall.
